High-throughput results from PubChem.
TRPML1 inh: human mucolipin-1 channel inhibition; TRPML1-inducible cells, Ca2+ dye fluorescence, FDSS; hits give low values; inhibition of EC80 agonist-evoked calcium signal; activity change, negative = inhibition, % (test concentration not listed); 390,000 tested, 0.02% active; in the data active means activity change below about -50%; inconclusive means about -30% to -50%; inactive means above about -30%;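 further: stimulus is agonist 54-4 at its EC80 concentration; on the % scale 0 is the no-effect control and ±100 the full control effect; compound concentration not given in the record; the text of the record puts the active cut at -80%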
Target sequence (Q9GZU1 whole entry, looked up): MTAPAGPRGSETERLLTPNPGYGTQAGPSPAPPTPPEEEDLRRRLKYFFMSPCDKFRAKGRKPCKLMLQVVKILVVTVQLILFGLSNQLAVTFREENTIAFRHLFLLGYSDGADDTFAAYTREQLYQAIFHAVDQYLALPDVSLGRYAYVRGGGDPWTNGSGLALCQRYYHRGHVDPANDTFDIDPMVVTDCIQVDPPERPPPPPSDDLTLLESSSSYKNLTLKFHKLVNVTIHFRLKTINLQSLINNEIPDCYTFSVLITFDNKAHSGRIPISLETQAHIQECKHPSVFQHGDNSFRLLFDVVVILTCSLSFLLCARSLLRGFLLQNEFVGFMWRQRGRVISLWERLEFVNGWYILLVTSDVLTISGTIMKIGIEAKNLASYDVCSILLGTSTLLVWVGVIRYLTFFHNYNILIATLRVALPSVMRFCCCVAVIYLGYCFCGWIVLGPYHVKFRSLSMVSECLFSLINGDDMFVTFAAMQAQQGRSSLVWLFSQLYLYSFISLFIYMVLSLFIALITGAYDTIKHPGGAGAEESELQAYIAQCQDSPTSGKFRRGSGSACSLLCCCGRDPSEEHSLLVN
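Calcium fluorescence in TRPML1-DL cells induced overnight with Tet: a 110 s read after compound pin addition, then a 110 s antagonist read after challenge with 54-4 at 4 uM final (EC80).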
CtBP-E1A inh: blocks the CtBP interaction with E1A | AlphaScreen GST-E1A/His-CtBP binding, 1536-well; hits give low values; control for the full effect not named in the record | activity change, % (no concentration beside the values) | 340,000 tested, 0.49% active; in the data active means activity change below about -65%; inconclusive means about -30% to -65%; inactive means above about -30%; further: on the % scale 0 is the no-effect control and ±100 the full control effect; compound concentration not given in the record
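Homogeneous bead-based format: GST-tagged E1A captured on glutathione donor beads, His-tagged CtBP on nickel acceptor beads; compounds precede bead addition by 2 h at 37 °C.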
D2 potentiator: positive allosteric modulators of human D2 dopamine receptor | potentiation, % (no concentration beside the values) | AID 624464 | DiscoveRx D2 beta-arrestin cells, luminescence, 90 min; 100% = 57 uM dopamine signal | P14416 | 360,000 tested, 0.23% active; active = potentiation of 50% or more; inconclusive = 30% to 50%; inactive = 30% or less;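 further: compound concentration not given in the record; tested on top of an EC20 dose of dopamine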
Target sequence (P14416 whole entry, looked up): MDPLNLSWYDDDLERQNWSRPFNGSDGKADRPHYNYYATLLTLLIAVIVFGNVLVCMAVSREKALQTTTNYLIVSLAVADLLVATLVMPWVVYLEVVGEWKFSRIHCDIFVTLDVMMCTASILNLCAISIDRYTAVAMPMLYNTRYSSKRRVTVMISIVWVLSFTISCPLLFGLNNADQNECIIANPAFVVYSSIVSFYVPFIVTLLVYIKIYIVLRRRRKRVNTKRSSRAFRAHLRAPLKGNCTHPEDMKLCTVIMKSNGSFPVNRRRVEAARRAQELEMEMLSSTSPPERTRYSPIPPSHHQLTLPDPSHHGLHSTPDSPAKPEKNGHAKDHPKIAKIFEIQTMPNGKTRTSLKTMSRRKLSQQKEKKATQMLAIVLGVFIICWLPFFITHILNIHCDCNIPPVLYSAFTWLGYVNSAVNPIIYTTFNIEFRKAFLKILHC
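D2 cells co-treated with compound plus 50 nM dopamine (EC20) for 90 min at 37 deg C to detect potentiation. Beta-arrestin recruitment was read as enzyme-fragment luminescence after 1 h at ambient temperature. Full response was set by 57 uM dopamine.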
Six1-Eya2 blk: inhibitors of human Six1/Eya2 interaction; Q15475+O00167; AlphaScreen GST-Six1/His-Eya2 binding, biochemical; hits give low values; control for the full effect not named in the record; activity change, % (no concentration beside the values); 360,000 tested, 0.56% active; in the data active = activity change below about -65%; inconclusive = about -30% to -65%; inactive = above about -30%; further: on the % scale 0 is the no-effect control and ±100 the full control effect; compound concentration not given in the record
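GST-Six1 + His-Eya2 (5X stock: 250/500 nM); Tris pH 8.0, 300 mM NaCl, 0.05% BSA, 0.02% Tween 20; GSH donor/Ni acceptor beads; 1 h 37 °C dark; AlphaScreen readout.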
TRPML1 ag: agonists of human TRPML1 channel | Q9GZU1 | TRPML1-expressing cells, Ca2+ dye fluorescence, FDSS; host cell line not named in the record; reference of the full effect not given here | activation, % (no concentration beside the values) | 410,000 tested, 0.12% active | AID 624414; in the data active = activation above about 50%; inconclusive = about 30% to 50%; inactive = below about 30%; further: 0% is about no effect; the text of the record puts the active cut at 80%
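Tetracycline-induced TRPML1-DL cells are seeded and incubated overnight before loading with a no-wash Ca2+ dye and quencher. Agonist activity is taken from the 110 s fluorescence read following compound pin-transfer on an FDSS, before EC80 54-4 challenge.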
TRPV1 potentiator: enhances activation of the human vanilloid receptor TRPV1; Q8NER1; TRPV1-expressing cells, Fluo-8 calcium influx, capsaicin EC20 potentiation; host cell line not named in the record; control for the full effect not named in the record; potentiation, % at 8.33 µM; 320,000 tested, 0.02% active; active means potentiation above 80%; inconclusive means 30% to 80%; inactive means below 30%; further: 0% is about no effect
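Cells expressing TRPV1 were dye-loaded with Fluo-8 and read kinetically: 10 s baseline, 3 min after compound (agonist portion), then 2 min after EC20 capsaicin (allosteric enhancer portion). Calcium-bound dye fluorescence at 480/520 nm.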
* = called active by the depositor; & = joins results of further samples.

What do the screens show for `N#Cc1cn(CC(=O)N2CCCC2)c2ccccc12`?
TRPML1 inh: -4.8; CtBP-E1A inh: 7.3; D2 potentiator: -11.8; Six1-Eya2 blk: -2.0; TRPML1 ag: -0.6; TRPV1 potentiator: -5.4

Results for CCOC(=O)N1CCN(C(c2ccc(C)cc2)c2sc3nc(C)nn3c2O)CC1 (stereo unspecified) ?
TRPML1 inh: 41.4; CtBP-E1A inh: -1.0; D2 potentiator: 1.7; Six1-Eya2 blk: 5.1; TRPML1 ag: 0.8; TRPV1 potentiator: -15.4

Results for C=CCNC(=O)/C(C#N)=C/c1ccccc1[N+](=O)[O-] ?
TRPML1 inh: 21.2; CtBP-E1A inh: 0.0; D2 potentiator: 8.5; Six1-Eya2 blk: 17.9; TRPML1 ag: 3.5; TRPV1 potentiator: -3.8

Results for Cc1ccc(S(=O)(=O)NNC(=O)c2ccccc2O)cc1 ?
TRPML1 inh: -1.7; CtBP-E1A inh: -3.0; D2 potentiator: 11.0; Six1-Eya2 blk: 12.9; TRPML1 ag: -0.1; TRPV1 potentiator: -0.7

What do the screens show for `O=C(C[C@@H]1C/C=C/CC[C@H](Cc2ccc(F)cc2)C(=O)OC[C@@H](Cc2ccccc2)NC1=O)N[C@H](CO)Cc1ccccc1`?
TRPML1 inh: -20.4; CtBP-E1A inh: 2.0; D2 potentiator: 6.9; Six1-Eya2 blk: 5.2; TRPML1 ag: 3.1

How did COc1cc2c(cc1OC)C(C)=NC1(CCCCC1)C2 do in these assays?
TRPML1 inh: -6.3; CtBP-E1A inh: 2.2; D2 potentiator: -7.5; Six1-Eya2 blk: 5.2; TRPML1 ag: -0.6; TRPV1 potentiator: 6.4

What do the screens show for `O=C(Oc1ccccc1C(=S)N1CCOCC1)c1cccc([N+](=O)[O-])c1`?
TRPML1 inh: 7.9; CtBP-E1A inh: 9.5; D2 potentiator: -3.2; Six1-Eya2 blk: -16.1; TRPML1 ag: -1.1; TRPV1 potentiator: -7.7

How did O=C(NCc1cccs1)N[C@@H](Cc1ccccc1)C(=O)O do in these assays?
TRPML1 inh: 23.3; CtBP-E1A inh: 10.8; D2 potentiator: 2.4; Six1-Eya2 blk: 2.5; TRPML1 ag: 1.2; TRPV1 potentiator: 2.5

How did Cc1nn(-c2ccccc2)c(C)c1C(=O)OC(C)C(=O)NC1CCCCC1C (stereo unspecified) do in these assays?
TRPML1 inh: -9.7; D2 potentiator: -1.9; Six1-Eya2 blk: -4.2; TRPML1 ag: -1.9; TRPV1 potentiator: -5.4

What do the screens show for `NC(=O)CSc1ncnc2c1oc1ccccc12`?
TRPML1 inh: 8.7; CtBP-E1A inh: -19.7; D2 potentiator: -10.6; Six1-Eya2 blk: 6.4; TRPML1 ag: -0.2; TRPV1 potentiator: -0.9

What do the screens show for `Fc1cccc(NCc2cn3ccccc3n2)c1`?
TRPML1 inh: 7.0; CtBP-E1A inh: 2.7; D2 potentiator: -5.2; Six1-Eya2 blk: -0.7; TRPML1 ag: -0.5; TRPV1 potentiator: 25.4

What do the screens show for `Cc1ccc(SC(C)C(=O)NCC(C)C)cc1` (stereo unspecified)?
TRPML1 inh: 8.5; CtBP-E1A inh: 4.6; D2 potentiator: -5.8; Six1-Eya2 blk: 0.0; TRPML1 ag: 0.5; TRPV1 potentiator: -3.9

What do the screens show for `CCN(CC)CCCNC(=O)c1ccc2c(Cl)c3c(nc2c1)CCCC3`?
TRPML1 inh: 3.7&-19.0; CtBP-E1A inh: -14.8; D2 potentiator: -12.7; Six1-Eya2 blk: -8.3; TRPML1 ag: 0.0&0.6; TRPV1 potentiator: 7.5

Results for O=P(COCCCCCOCP(=O)(c1ccccc1)c1ccccc1)(c1ccccc1)c1ccccc1 ?
TRPML1 inh: -16.5; CtBP-E1A inh: 6.9; D2 potentiator: 1.7; Six1-Eya2 blk: 2.8; TRPML1 ag: 0.6; TRPV1 potentiator: 8.4

What do the screens show for `O=C(c1ccc(S(=O)(=O)c2cccc(Cl)c2)c([N+](=O)[O-])c1)N1CCN(Cc2ccccc2)CC1`?
TRPML1 inh: -1.5; CtBP-E1A inh: 1.8; D2 potentiator: 3.8; Six1-Eya2 blk: -0.4; TRPML1 ag: -0.7; TRPV1 potentiator: 8.9

How did COc1cc(/C=C/C(=O)O)cc(S(=O)(=O)NCCO)c1OC do in these assays?
TRPML1 inh: -14.4; CtBP-E1A inh: 8.9; D2 potentiator: 2.3; Six1-Eya2 blk: 1.4; TRPML1 ag: -0.1; TRPV1 potentiator: -12.9

How did C/C=C/C(=O)OCC(=O)Nc1ccc(OC)c(OC)c1 do in these assays?
TRPML1 inh: -2.7; CtBP-E1A inh: 2.5; D2 potentiator: 0.0; Six1-Eya2 blk: 0.5; TRPML1 ag: 0.6; TRPV1 potentiator: -3.3

Results for COc1ccc(C(=O)OCCCc2cc3ccccc3c(=O)o2)cc1 ?
TRPML1 inh: 20.7; CtBP-E1A inh: 9.2; D2 potentiator: -11.8; Six1-Eya2 blk: 16.2; TRPML1 ag: 1.7; TRPV1 potentiator: 13.7

Results for CC1(C)N=C(N)N=C(N)N1c1cccc(C#N)c1 ?
TRPML1 inh: 2.0; CtBP-E1A inh: 5.4; D2 potentiator: 0.7; Six1-Eya2 blk: 4.2; TRPML1 ag: 0.2

What do the screens show for `COc1ccc2cc(Br)ccc2c1CC(=O)NCC1CCCO1` (stereo unspecified)?
TRPML1 inh: -10.2; CtBP-E1A inh: 2.5; D2 potentiator: 1.0; Six1-Eya2 blk: 14.7; TRPML1 ag: 0.6; TRPV1 potentiator: 1.4

Pulled one by one from the entries so far:
What do the screens show for `Fc1cccc(NCc2cn3ccccc3n2)c1`?
TRPML1 inh: 7.0; CtBP-E1A inh: 2.7; D2 potentiator: -5.2; Six1-Eya2 blk: -0.7; TRPML1 ag: -0.5; TRPV1 potentiator: 25.4

How did COc1cc(/C=C/C(=O)O)cc(S(=O)(=O)NCCO)c1OC do in these assays?
TRPML1 inh: -14.4; CtBP-E1A inh: 8.9; D2 potentiator: 2.3; Six1-Eya2 blk: 1.4; TRPML1 ag: -0.1; TRPV1 potentiator: -12.9

Further records:
Results for COc1ccc(OC)c(C(=O)COC(=O)CN2C(=O)NC3(CCCCC3C)C2=O)c1 (stereo unspecified) ?
TRPML1 inh: 8.7; CtBP-E1A inh: -1.5; D2 potentiator: 0.0; Six1-Eya2 blk: 0.5; TRPML1 ag: 1.5; TRPV1 potentiator: -8.7

Results for Cc1ccc(NC(=O)COC(=O)CN2C(=O)C3CCCCC3C2=O)cc1S(=O)(=O)N1CCOCC1 (stereo unspecified) ?
TRPML1 inh: 2.0; CtBP-E1A inh: 3.8; D2 potentiator: -9.6; Six1-Eya2 blk: 3.3; TRPML1 ag: 0.5; TRPV1 potentiator: 7.6

Results for COc1ccc(CSc2cccc3cccnc23)cc1[N+](=O)[O-] ?
TRPML1 inh: 12.3; CtBP-E1A inh: inconclusive; D2 potentiator: -3.1; Six1-Eya2 blk: inconclusive; TRPML1 ag: 0.7; TRPV1 potentiator: 24.4

Results for O=C1NC(Cc2c[nH]c3ccccc23)C(=O)N1Cc1cccc2ccccc12 (stereo unspecified) ?
TRPML1 inh: -2.4; CtBP-E1A inh: -10.9; D2 potentiator: -5.4; Six1-Eya2 blk: -7.1; TRPML1 ag: 1.5; TRPV1 potentiator: 5.4

What do the screens show for `CC(=O)N1N=C(c2ccc(C)cc2)OC1c1ccc(Br)cc1` (stereo unspecified)?
TRPML1 inh: 47.7; D2 potentiator: -12.9; Six1-Eya2 blk: -3.0; TRPML1 ag: 2.9; TRPV1 potentiator: -6.1

What do the screens show for `c1ccc(-n2cnc3cc(NCc4cccs4)ccc32)cc1`?
TRPML1 inh: 11.4; CtBP-E1A inh: -20.8; D2 potentiator: -6.3; Six1-Eya2 blk: -13.3; TRPML1 ag: -0.8; TRPV1 potentiator: -12.7

What do the screens show for `CCC(=O)Nc1ccc(C(=O)Nc2cc(C)on2)cc1`?
TRPML1 inh: 1.3; CtBP-E1A inh: -4.1; D2 potentiator: -12.2; Six1-Eya2 blk: -2.3; TRPML1 ag: -0.3; TRPV1 potentiator: 5.3

How did O=C1COc2cc(O)ccc21 do in these assays?
TRPML1 inh: 5.8; CtBP-E1A inh: 8.6; D2 potentiator: -6.5; Six1-Eya2 blk: 9.9; TRPML1 ag: 0.1

What do the screens show for `O=C1OCCN1C(=O)[C@H]1[C@H](c2ccc(Cl)cc2)C(c2ccccc2)=NN1c1ccccc1`?
TRPML1 inh: 2.4; CtBP-E1A inh: 29.4; Six1-Eya2 blk: 26.7; TRPML1 ag: -0.2

Results for Nc1nncn1C(=O)CCCOc1ccccc1 ?
TRPML1 inh: -1.1; CtBP-E1A inh: 2.4; D2 potentiator: -10.2; Six1-Eya2 blk: 3.8; TRPML1 ag: -0.5; TRPV1 potentiator: -0.2

What do the screens show for `Cc1cc(C(=O)N/N=C/c2c(C)[nH]c3ccccc23)n[nH]1`?
TRPML1 inh: -9.7; CtBP-E1A inh: -1.3; D2 potentiator: -7.6; Six1-Eya2 blk: -9.6; TRPML1 ag: 0.2; TRPV1 potentiator: -14.6

Results for CCOc1ccccc1N(CC(=O)NCc1ccc(OC)cc1)S(C)(=O)=O ?
TRPML1 inh: -11.6; CtBP-E1A inh: -5.3; D2 potentiator: -5.5; Six1-Eya2 blk: 0.9; TRPML1 ag: -0.1; TRPV1 potentiator: -4.7

Results for Cc1ccc(-c2nnn(CC(=O)N(CC(=O)NCC3CCCO3)c3ccccc3)n2)o1 (stereo unspecified) ?
TRPML1 inh: 11.7; CtBP-E1A inh: 1.7; D2 potentiator: -4.3; Six1-Eya2 blk: 1.1; TRPML1 ag: 0.6; TRPV1 potentiator: -26.6

What do the screens show for `COc1cc2c(cc1OC)C(COc1ccccc1OC)N(C(=O)c1ccco1)CC2` (stereo unspecified)?
TRPML1 inh: 15.2; CtBP-E1A inh: 24.9; D2 potentiator: -20.6; Six1-Eya2 blk: 0.0; TRPML1 ag: -0.1; TRPV1 potentiator: -9.9

What do the screens show for `CC(C)(C)C1CCc2onc(C(=O)Nc3cccnc3)c2C1` (stereo unspecified)?
TRPML1 inh: -10.9; CtBP-E1A inh: -6.0; D2 potentiator: -2.5; Six1-Eya2 blk: -1.4; TRPML1 ag: -0.1; TRPV1 potentiator: -9.7

What do the screens show for `CCCCC(=O)Nc1cccc(NC(=S)NC(=O)COc2ccccc2Cl)c1`?
TRPML1 inh: -2.2; CtBP-E1A inh: 0.5; D2 potentiator: -10.1; Six1-Eya2 blk: -1.8; TRPML1 ag: 0.9; TRPV1 potentiator: 6.7

Results for CCc1ccccc1NC(=O)N1C2CCCC1CC(NC(=O)C(C)(C)C)C2 (stereo unspecified) ?
TRPML1 inh: 2.1; CtBP-E1A inh: 3.6; D2 potentiator: -2.7; Six1-Eya2 blk: 17.2; TRPML1 ag: -0.3; TRPV1 potentiator: -4.1

How did COc1ccc(-c2csc(-n3cccn3)n2)cc1 do in these assays?
TRPML1 inh: 9.0; CtBP-E1A inh: 24.2; D2 potentiator: -4.6; Six1-Eya2 blk: 15.2; TRPML1 ag: -1.9; TRPV1 potentiator: -12.3

How did CCOC(=O)NC(=O)C(/C=N/c1sccc1C(=O)OC)=C(\C)O do in these assays?
TRPML1 inh: 8.9; CtBP-E1A inh: -18.8; D2 potentiator: 4.3; Six1-Eya2 blk: -1.3; TRPML1 ag: 2.4; TRPV1 potentiator: 7.2
